# Screens (PubChem)
# VDR inh – blocks the human vitamin D receptor. VDR-SRC2-3 peptide fluorescence polarization, 2 h. AID 504847. P11473. Potency, µM, inactives show max response, negative = inhibition, hits mostly inhibitors. 400,000 tested, 0.93% active; active means well fitted inhibition curve with a large enough effect; inconclusive means small, poorly fitted or top-dose-only effect, or another doubt; inactive means no such curve, though single readings can be large or run the other way; further: series mostly up to about 120 µM
# Target sequence (P11473 whole entry, looked up): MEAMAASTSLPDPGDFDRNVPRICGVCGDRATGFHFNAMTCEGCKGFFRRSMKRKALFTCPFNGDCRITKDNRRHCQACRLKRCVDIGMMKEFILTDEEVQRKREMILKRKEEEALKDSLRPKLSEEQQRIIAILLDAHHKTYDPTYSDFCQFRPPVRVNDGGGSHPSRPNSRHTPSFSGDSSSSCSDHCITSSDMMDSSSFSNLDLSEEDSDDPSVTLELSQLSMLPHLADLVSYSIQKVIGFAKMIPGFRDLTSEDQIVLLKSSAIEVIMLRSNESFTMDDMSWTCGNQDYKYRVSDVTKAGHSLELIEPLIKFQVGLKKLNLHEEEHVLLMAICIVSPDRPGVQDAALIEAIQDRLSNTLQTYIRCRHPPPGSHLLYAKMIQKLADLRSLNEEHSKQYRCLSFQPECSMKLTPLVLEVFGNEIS
#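 Fluorescence polarization assay of small-molecule disruption of VDR binding to coregulator peptide SRC2-3. Compounds and controls pin-transferred, then read after 2 h incubation at ambient room temperature.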
# Active calls of the source: *; u = inconclusive; & = joins results of further samples; [ ] = remark or other dose. On the % scale 0 is the no-effect control and ±100 the full control effect; potency means the concentration at half of the fitted maximal effect. Some of the compounds tested; count on the stated rates, not on these rows.
SMILES,VDR inh
N#CCCN(Cc1ccccc1)C(=S)Nc1ccc(F)cc1,-6%
CC(C)(C)c1nc2c(s1)CCc1onc(-c3ccc(Cl)cc3)c1-2,-19%
COc1cc(/C=C/C(=O)OCC(=O)Nc2cc(C(F)(F)F)ccc2N2CCOCC2)ccc1O,-2%
COc1ccccc1-c1cc(C(F)(F)F)nc(S(=O)(=O)CCCC(=O)Nc2ccccc2F)n1,u
C[C@H](CO)N1C[C@H](C)[C@@H](CN(C)Cc2ccncc2)Oc2ccc(NC(=O)CCCCCC(=O)Nc3ccccc3N)cc2C1=O,-17%
CC(C)C[C@H]1COCCS(=O)(=O)N1Cc1cccc(C(F)(F)F)c1,4%
O=c1c2cc(NC(=S)NCCCN3CCC(Cc4ccccc4)CC3)ccc2nc2n1CCCCC2,3%
COc1ccc2c(c1)CCC1C2=NN(/C(C)=C/C(C)=O)C1c1cccc(F)c1 (stereo unspecified),-17%
Cc1cc(C)c(S(=O)(=O)N(C)CC(=O)NCCN2CCOCC2)c(C)c1,9%
O=C(COc1ccc2c3c(c(=O)oc2c1)CCC3)N[C@@H](CSCc1ccccc1)C(=O)O,-6%
Clc1ccc(OCCCNCc2ccccc2)c2ccccc12,-11%
CCOCCOc1cccc(C(=O)NC(C)c2ccc3ccccc3c2)c1 (stereo unspecified),u
Cn1c(=O)n(Cc2ccccc2F)c2ccccc21,24%
Cn1cnc([N+](=O)[O-])c1Sc1ccc(Br)cc1,-5%
COc1ccc(C)cc1S(=O)(=O)N(CC(=O)NCc1ccc(Cl)cc1)Cc1ccccc1,-3%

# Arranged by formula weight (lowest first): part of the list above.
SMILES,VDR inh
Cn1cnc([N+](=O)[O-])c1Sc1ccc(Br)cc1,-5%
CC(C)C[C@H]1COCCS(=O)(=O)N1Cc1cccc(C(F)(F)F)c1,4%
COc1ccc2c(c1)CCC1C2=NN(/C(C)=C/C(C)=O)C1c1cccc(F)c1 (stereo unspecified),-17%

# Later entries:
SMILES,VDR inh
O=C(CNC(=O)c1ccc(Cl)cc1)OCc1nc2ccccc2s1,6%
CCOc1ccc(-c2c(C)n([O-])c3c([n+]2=O)CCCC3)cc1,16%
CC1(C(=O)O)CCC(C(N)=O)C1(C)C (stereo unspecified),6%
CCCCC1=CC2=CC(=O)C(C)(OC(=O)CC)C(=O)C2=CN1CCCCO (stereo unspecified),-6%
O=C(Nc1ccccc1)C1CCN(C(=O)c2ccc(Br)cc2)CC1,-13%
CCCCn1c(N)c(N(CCOC)C(=O)CCCc2cccs2)c(=O)[nH]c1=O,-6%
CCN(Cc1ccncc1)C(=O)Cc1cccs1,8%
Cc1ccc(NC(=O)CSc2nnc(COc3ccc(Cl)cc3)o2)c(C)c1,12%
Cc1ccc(C(=O)N2CCC(C(=O)NCc3cccnc3)CC2)cc1,-1%
O=C(Nc1nncs1)C1CC(=O)N(C2CCCC2)C1 (stereo unspecified),21%
O=C(CN1C(=O)c2cccnc2Oc2ccc(Cl)cc21)NC1CCCC1,-8%
COc1ccccc1NS(=O)(=O)c1cccc(C(=O)N2CCN(C/C=C/c3ccccc3)CC2)c1,15%
O=C(NNc1ncnc2c1cnn2-c1ccc(F)cc1)c1ccco1,-5%
Cc1c(C)n(CC(O)CNc2ccccc2)c2ccccc12 (stereo unspecified),-16%
CCOC(=O)CN1C(c2ccccc2O)Nc2ccc(Br)cc2C1c1ccccc1 (stereo unspecified),-15%

# Ordered by value in VDR inh (ascending): some entries from above.
smiles | VDR inh
Cc1c(C)n(CC(O)CNc2ccccc2)c2ccccc12 (stereo unspecified) | -16%
CCOC(=O)CN1C(c2ccccc2O)Nc2ccc(Br)cc2C1c1ccccc1 (stereo unspecified) | -15%
CCCCC1=CC2=CC(=O)C(C)(OC(=O)CC)C(=O)C2=CN1CCCCO (stereo unspecified) | -6%

# Going on with the list.
SMILES,VDR inh
CCCNC(=O)CS(=O)Cc1nc(-c2ccc(OC)cc2)oc1C (stereo unspecified),-4%
COc1ccc(Cl)cc1NC(=O)N1CCC(C)CC1,-10%
N/C(CC(=O)Nc1cccc(C(F)(F)F)c1)=N/O,-4%
COc1ccc(NS(=O)(=O)c2cccc(C(=O)Nc3cccc(C(=O)O)c3)c2)cc1,-11%
O=C(NC1CC1)c1nc(Cn2ccc([N+](=O)[O-])n2)no1,-4%
CC1(C)C(=O)NCCN1C(=O)CCCC(=O)O,16%
CSc1c(CC(=O)Nc2ccccc2Cl)n(Cc2ccccc2)c2ccccc12,-5%
COc1ccc(S(=O)(=O)N2CCOCC2)cc1C(=O)NC1CCCCCC1,-13%
COC(=O)c1c(NS(=O)(=O)c2ccc3ccccc3c2)sc2c1CCCC2,11%
Cc1ccc(-c2csc(NC(=O)c3cccs3)n2)cc1,13%
CCOC(=O)Cn1c(-c2cccs2)cc2cc(Cl)ccc21,-4%
CN1CCN(c2ncc3nc(CCc4ccccc4)c(=O)n(Cc4ccc(F)cc4)c3n2)CC1,5%
Cc1ccc2c(c1)N(CCC(=O)NC1CCCCC1C)C(=O)CO2 (stereo unspecified),-20%
CCOc1ccccc1Nc1nc(N)nc(CN(C)C2CCCCC2)n1,u
O=C(Nc1cc(-c2nc3ccccc3o2)ccc1Cl)c1cccc2c(Cl)cccc12,-3%
CC(C)NC(=S)N1CCN(C/C=C/c2ccccc2)CC1,16%
CCOC(=O)/C(C#N)=C1\Nc2ccccc2N=C1N(CC(C)C)CC(C)C,-18%
O=c1cc(CN2CCN(S(=O)(=O)c3ccccc3[N+](=O)[O-])CC2)nc2sccn12,12%
O=C(COC(=O)COc1ccccc1)NC1CCCc2ccccc21 (stereo unspecified),-12%
CCc1nc(NCCCn2ccnc2)c2oc3ccccc3c2n1,9%
Cc1ccc(Cl)c2c1NC(=O)C2(O)CC(=O)c1ccc(F)cc1 (stereo unspecified),2%
Cc1ccc(NC(=O)c2sc(-n3nc(C)c(Cc4ccc5c(c4)OCO5)c3C)nc2C)cc1Cl,3%
CCCOc1ccccc1C1NC(=O)NC(C)=C1C(=O)OCCOC (stereo unspecified),5%
COC(=O)N[C@H](c1ccccc1)[C@@]1(C)C[C@@H]1[C@@H](C)C(=O)Nc1ccc2ccccc2c1,-18%&9%
Cc1oc2ncn(C)c(=O)c2c1C(=O)N(C)c1ccccc1F,10%
O=[N+]([O-])c1ccccc1S(=O)(=O)Oc1ccccc1/C=N/n1cnnc1,13%
O=C(O)C1CC=CCC1C(=O)N1CCc2ccccc21 (stereo unspecified),-14%
Cc1ccc(CN2CCN(Cc3cnc(N(C)C)s3)CC2CCO)o1 (stereo unspecified),5%
COc1ccc(CNC(=O)CS(=O)CC(=O)O)cc1OC (stereo unspecified),-22%
O=C(NCCCc1ccccc1)c1nn(-c2ccccc2)nc1CO,-1%

# Single entries from the entries so far.
# O=C(NCCCc1ccccc1)c1nn(-c2ccccc2)nc1CO in VDR inh has -1%
# CC(C)NC(=S)N1CCN(C/C=C/c2ccccc2)CC1 in VDR inh has 16%
# O=C(O)C1CC=CCC1C(=O)N1CCc2ccccc21 (stereo unspecified) in VDR inh has -14%
# CCCOc1ccccc1C1NC(=O)NC(C)=C1C(=O)OCCOC (stereo unspecified) in VDR inh has 5%
# COc1ccc(CNC(=O)CS(=O)CC(=O)O)cc1OC (stereo unspecified) in VDR inh has -22%
# O=c1cc(CN2CCN(S(=O)(=O)c3ccccc3[N+](=O)[O-])CC2)nc2sccn12 in VDR inh has 12%

# Next structures.
SMILES,VDR inh
Cc1cccc(-c2noc(CN(C)C(=O)c3ccc4c(c3)OCO4)n2)c1,-14%
COc1ccc(C(=O)NC2CCC(O)CC2)cc1S(=O)(=O)NCc1ccc(Cl)cc1 (stereo unspecified),4%
O=C(CN1C(=O)C(=O)N(C2CCCC2)C1=O)Nc1ccc(F)cc1F,-4%
O=C(O)c1cccc(N2C(=O)c3cccc4cccc(c34)C2=O)c1,-12%
CSc1ccc(CN(C)CC(=O)Nc2ccc(C)cc2Br)cc1,-24%
CSc1nc2c([nH]c3ccccc32)c(=O)n1-c1ccc(F)cc1,3%
COC(=O)C1=C(C)NC(=S)NC1c1ccc(-c2ccccc2C(=O)OC)o1 (stereo unspecified),u
O=C(N/N=C/c1cc(Br)c(O)c(Br)c1)C1CC1,-16%
O=C(NC(=S)N1CCCc2ccccc21)c1ccc(Cl)cc1,u
COc1cc(OC)c(NC(=O)N2CCC(CN3CCOCC3)CC2)cc1Cl,0%
COc1cc(N=Nc2ccc(C(=O)N(C)C)cc2)c(C)cc1N,1%
CCOCCCn1c(-c2ccc(Cl)cc2)n[nH]c1=S,-3%
CCN1CCN(C(=O)c2ccc(CS(=O)(=O)Cc3ccccc3C)o2)CC1,-8%
CC(C)c1ccc2nc(SCC(=O)NCC3CCCO3)c(C#N)cc2c1 (stereo unspecified),4%
COc1ccc(S(=O)(=O)N2CCCCC2)cc1NC(=O)C1CC1,5%
CCCCOc1ccc(NC(=O)[C@@H]2CCCN2C(=O)C2CCN(S(=O)(=O)c3ccc(C)cc3)CC2)cc1,-9%
Cc1c(Cl)cccc1NC(=O)NCc1ccccn1,12%
O=C(NCc1ccncc1)C(=O)Nc1ccc2c(c1)OCO2,-9%
CCCCn1c(-c2nonc2NC(=O)c2ccccc2Cl)nc2ccccc21,-25%
COc1cccc(NC(=O)Cn2c(=O)ccc3cc(S(=O)(=O)N4CCC(C)CC4)ccc32)c1,6%
O=C(NCc1ccccc1)[C@]1(C(F)(F)F)C[C@H](CCC2CCCCC2)CCCO1,-16%
OCCC1CN(Cc2nc3ccccc3s2)CCN1C1CCCC1 (stereo unspecified),3%
CN(CC(=O)Nc1ccc(Cl)cc1)C(=O)c1cccc(S(=O)(=O)N(C)C)c1,13%
Cc1cc(-n2c(C)cc(C(=O)COc3ccc(Cl)cc3C(N)=O)c2C)no1,9%
O=C(COC(=O)C1=COCCO1)Nc1ccc2c(c1)OCO2,21%
COc1ccc(C(=O)N2CCN(c3ncccn3)CC2)cc1,9%
Cc1ccsc1CCNC(=O)C1CCC(=O)N(CCc2cccc(F)c2)C1 (stereo unspecified),-12%
CCN(CC)S(=O)(=O)c1ccc2c(c1)[nH]c(=S)n2CC,-2%
O=C(CSc1ccccc1)NCc1ccc2c(c1)CCN2C(=O)c1ccc(Cl)cc1,19%
CC(/C=N/NC(=O)c1ccccc1F)=C\c1ccccc1,-10%
CC(C)C[C@H](NC(=O)[C@@H]1Cc2c([nH]c3ccccc23)C2c3ccccc3C(=O)N21)C(=O)N1CCC[C@@H]1C(=O)O (stereo partly specified),-5%
O=c1nc(SCc2ccc(Cl)cc2)nc(-c2ccccc2)[nH]1,-11%
Cc1ccccc1Nc1nc(N)c(C(=O)c2ccccc2Cl)s1,-2%
COCCN(C(=O)CCC(=O)Nc1ccccn1)C(C(=O)NCCC(C)C)c1ccc(F)cc1 (stereo unspecified),11%
CCCCOC(=O)Nc1sc2c(c1C(=O)OC)CCC2,-8%
CCOC(=O)N1C(=O)NC(=O)C1c1ccc(OC)cc1 (stereo unspecified),-3%
Cc1ccc(C(=O)CSc2nnc(C3CC3)n2C2CC2)s1,-20%
CCNC(=S)N(CCc1c(C)[nH]c2ccc(C)cc12)Cc1cc(OC)c(OC)c(OC)c1,-12%
CCCCS(=O)(=O)N1CCCC(C(=O)Nc2ccc3c(c2)CCC3)C1 (stereo unspecified),-17%
Cc1nn(C)c(N)c1-c1ccccc1,13%
CC(=O)Nc1ccccc1-c1nc2cc(C#N)c(C#N)cc2[nH]c1=O,-19%
O=C(OC1CSc2nc3ccccc3n2C1)c1ccco1 (stereo unspecified),0%
COc1ccc(NC(=O)NC2CCCc3ccccc32)cc1OC (stereo unspecified),10%
Cc1ccc(Nc2cc(C)nc(-c3ccccc3)n2)cc1,6%
CCN(Cc1ccccc1)S(=O)(=O)c1ccc(S(=O)(=O)N2CCN(CCC#N)CC2)cc1,10%
CCOC(=O)C1CCN(CC(O)COC(CC)c2ccccc2)CC1 (stereo unspecified),-6%
CSc1cccc(NC(=O)CN(C)S(=O)(=O)c2ccc3c(c2)CCCN3C(C)=O)c1,8%
COc1ccccc1NC(=O)Nc1ccc2c(c1)OCCO2,21%
Cc1n[nH]c(=O)c2c(NC(=O)CSc3cc(Cl)ccc3Cl)oc(C)c12,-10%
Cc1ccc(-c2n[nH]c(=O)c3ccccc23)cc1S(=O)(=O)NCCN1CCOCC1,2%
COc1ccc(CNC(=O)COC(=O)CCc2c[nH]c3ccccc23)cc1,-11%
COc1ccc(S(=O)(=O)c2c(O)c3ccc(C(=O)Nc4ccccc4F)cc3[nH]c2=O)cc1,-16%
c1ccc(-n2ncc3c(NCC4CCCO4)ncnc32)cc1 (stereo unspecified),26%
CSCCC(NC(=O)C12CC3CC(CC(C3)C1)C2)C(=O)OCC(=O)c1ccc(C)cc1 (stereo unspecified),36%[activator]
COc1ccc(/C=C/C(=O)OCC(=O)Nc2ccc(S(N)(=O)=O)cc2)cc1OC,4%
CC(=O)Nc1cc(NC(C)=O)c(CC(C)C)s1,-12%
Cc1cccc(N2CCN(c3ccc(C(N)=O)cc3[N+](=O)[O-])CC2)c1C,24%
Cc1cc(C)c(NC(=O)CS(=O)CC(=O)Nc2ccc(N3CCOCC3)cc2)c(C)c1 (stereo unspecified),2%
CCOC(=O)Nc1sc(C)nc1-c1ccccc1,9%
COc1ccc(NC(=O)CCOc2ccccc2)cc1,0%
Cc1[nH]c2ccccc2c1/C=N/NC(=O)c1cc(-c2ccccc2)n[nH]1,6%
O=C(COc1ccccc1Cl)NCCNC(=O)c1cccnc1,-9%
Cc1cccc(N2CCN(C(=O)c3ccccc3NC(=O)C3=CSCCO3)CC2C)c1 (stereo unspecified),u

# Some of the entries above, reformatted:
SMILES	VDR inh
O=C(O)c1cccc(N2C(=O)c3cccc4cccc(c34)C2=O)c1	-12%
CSc1ccc(CN(C)CC(=O)Nc2ccc(C)cc2Br)cc1	-24%
CSc1nc2c([nH]c3ccccc32)c(=O)n1-c1ccc(F)cc1	3%
COC(=O)C1=C(C)NC(=S)NC1c1ccc(-c2ccccc2C(=O)OC)o1 (stereo unspecified)	u
O=C(N/N=C/c1cc(Br)c(O)c(Br)c1)C1CC1	-16%
O=C(NC(=S)N1CCCc2ccccc21)c1ccc(Cl)cc1	u
